FPR binder: binds the human formylpeptide receptor FPR | inhibition, %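 (tested at 6.7 µM)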 | actives 0.74% (n = 24,000) | P21462 | FPR-expressing cells, fluorescent ligand binding, flow cytometry;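 further: 0% = buffer wells and 100% = receptor blocker peptide wells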
Target sequence (P21462 whole entry, looked up): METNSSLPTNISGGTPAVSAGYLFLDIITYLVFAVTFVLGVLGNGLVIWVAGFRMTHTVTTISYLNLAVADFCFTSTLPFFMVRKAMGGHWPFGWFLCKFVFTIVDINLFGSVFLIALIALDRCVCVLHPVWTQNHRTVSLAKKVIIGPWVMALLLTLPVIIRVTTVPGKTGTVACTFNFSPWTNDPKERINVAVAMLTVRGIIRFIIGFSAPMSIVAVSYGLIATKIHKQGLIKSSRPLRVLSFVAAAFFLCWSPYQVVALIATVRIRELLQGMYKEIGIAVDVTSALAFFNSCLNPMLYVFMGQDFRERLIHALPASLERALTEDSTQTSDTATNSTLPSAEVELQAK
VCAM-1 augmentation: boosters of cytokine-driven VCAM-1 levels – imaging, high-content imaging, pooled HUVEC, TNFa stimulus (AID 457); Pooled HUVEC, TNFa-induced VCAM-1 immunofluorescence imaging; hits of this screen are not shown here; calls only; actives 0.2% (n = 10,000);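 active means a top-ranked rise in VCAM-1 staining upheld on image or statistical review; inactive means the rest, including candidates rejected on review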;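 further: compounds tested at 5 µM in the well; cells exposed to compound for 24 hours before fixing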
VCAM-1 down imaging: inhibitors of TNFa-induced VCAM-1 surface display, imaging, high-content imaging, pooled HUVEC, TNFa stimulus (AID 456) | one-dose inhibition, % at 5 µM; IC50 in µM for titrated hits | HUVEC TNFa-induced VCAM-1 surface expression, immunofluorescence imaging; numbers were filed only for top-ranked candidate wells | actives 0.2% (n = 10,000);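 active means top tenth filtered wells with inhibition above zero that passed visual or statistical confirmation; inactive means the rest, including hits rejected on review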;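 further: 0% = stimulated vehicle wells and 100% = unstimulated cells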
FPRL1 binder: human FPRL1 ligand, with FPR counter-screen; P25090; FPRL1-expressing cells, fluorescent ligand binding inhibition, flow cytometry; inhibition, %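 (tested at 6.7 µM)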; actives 0.3% (n = 24,000); AID 441;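 further: 0% = buffer alone and 100% = receptor blocker peptide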
Target sequence (P25090 whole entry, looked up): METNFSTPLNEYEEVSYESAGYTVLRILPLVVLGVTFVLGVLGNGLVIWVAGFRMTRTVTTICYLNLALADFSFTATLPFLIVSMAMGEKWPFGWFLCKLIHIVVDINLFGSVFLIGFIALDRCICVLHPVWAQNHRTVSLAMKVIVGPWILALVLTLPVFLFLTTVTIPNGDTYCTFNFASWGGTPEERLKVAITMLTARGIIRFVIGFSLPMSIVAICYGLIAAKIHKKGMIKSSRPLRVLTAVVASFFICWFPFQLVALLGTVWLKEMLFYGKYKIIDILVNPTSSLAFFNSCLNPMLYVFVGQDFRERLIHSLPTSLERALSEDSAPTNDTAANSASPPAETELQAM
VCAM-1 down: suppression of endothelial VCAM-1 upregulation – cell-based, plate reader, pooled HUVEC, TNFa stimulus (AID 454); HUVEC TNFa-induced VCAM-1 surface immunofluorescence, plate reader; numbers were filed only for top-ranked candidate wells; actives 0.2% (n = 10,000); inhibition, % at 5 µM;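 active means compound among top-ranked inhibitors of TNF-induced VCAM-1 adhesion protein staining, with the hit upheld by image or statistical review; inactive means the rest, including hits rejected on review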;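 further: 0% = TNFa with vehicle and 100% = cells without TNFa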
* = called active by the depositor; i = inactive; . = no result given.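 How the source made its calls, unless noted: active means mean above 30%; inconclusive means self-fluorescent; inactive means the rest.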

SMILES | FPR binder | VCAM-1 augmentation | VCAM-1 down imaging | FPRL1 binder | VCAM-1 down
COc1ccc(C(=O)Nc2cc(-c3nn4c(C)nnc4s3)ccc2C)cc1 | 18 | . | . | 12 | .
O=C(CN1CCOc2ccccc21)N1CCCC1 | -3 | . | . | 1 | .
Nc1cc(OC(=O)c2ccccc2Br)nn1S(=O)(=O)c1ccccc1 | 4 | . | . | -2 | .
O=C(OCCN(CCOC(=O)c1ccncc1)S(=O)(=O)c1cccs1)c1ccncc1 | 5 | i | i | 0 | i
O=C(c1c(Cl)nc2sccn12)N(C(=O)c1c(Cl)nc2sccn12)c1ccc(Cl)cn1 | 1 | i | i | -3 | i
CSCCC(NS(=O)(=O)c1ccc2c(c1)oc(=O)n2C)C(=O)NC1CCC(C)CC1 (stereo unspecified) | 3 | . | . | 4 | .
CCCCNC(=O)CC1C(=O)N(Cc2ccccc2)C(C)c2nc3ccccc3n21 (stereo unspecified) | 14 | . | . | 3 | .
Cn1nc(-c2ccc(N3CCCCC3)c(NC(=O)c3ccco3)c2)c2ccccc2c1=O | 0 | i | 88% | -8 | 83*
CCOC(=O)c1sc(NC(=O)CSc2nc3c(cc2C#N)CCC3)c(C#N)c1C | 27 | i | i | 27 | i
CC1=CCC2C(=O)N(c3ccc(C)c(Br)c3)C(=O)C2C1 (stereo unspecified) | 1 | . | . | -1 | .
Cn1c(=O)c2c(ncn2CC(O)CO)n(C)c1=O (stereo unspecified) | -2 | i | i | -6 | i
CC1(C)SC2[C@H](NC(=O)C(NC(=O)N3CCNC3=O)c3ccccc3)C(=O)N2C1C(=O)O (stereo partly specified) | 1 | i | i | 2 | i
Cc1ccc2cc3cc(C(=O)NCc4ccc5c(c4)OCO5)oc3nc2c1 | -2 | . | . | -5 | .
CC(NC(=O)NC12CC3CC(CC(C3)C1)C2)C1CCCO1 (stereo unspecified) | 17 | i | i | 6 | i
COc1ccccc1CNC(=O)CCS(=O)(=O)c1ccc2c(c1)CCCN2C(C)=O | -3 | . | . | -3 | .
CC(c1ccco1)N(Cc1ccco1)C(=O)Nc1ccccc1 (stereo unspecified) | 2 | i | i | 1 | i
Cc1nc2ccc(S(=O)(=O)NC(CC(C)C)C(=O)O)cc2s1 (stereo unspecified) | 5 | . | . | 4 | .
COc1cccc(NC(=O)N2CCN(c3cccc(C)c3)C(C)C2)c1 (stereo unspecified) | 2 | . | . | 2 | .
CCOC(=O)C1C(=O)C=C(c2ccc(OC)cc2)CC1c1ccco1 (stereo unspecified) | 3 | . | . | -6 | .
CCn1c(SCc2nc(-c3cccs3)no2)nnc1-c1c[nH]c2ccccc12 | 11 | i | i | 6 | i
CCn1c(=O)cc(SCC(=O)Nc2ccc3c(c2)OCCO3)c2ccccc21 | -6 | . | . | -5 | .
CCN(CCNC(=O)c1cc(C)nn1-c1ccccc1)c1ccccc1 | -4 | . | . | 0 | .
Cc1noc(C)c1S(=O)(=O)N1CCC2(CC1)OCCO2 | -8 | . | . | 4 | .
Cc1ccc(-n2nc3c(c2NC(=O)c2ccc(Br)o2)CSC3)c(C)c1 | 3 | . | . | -1 | .

Some of the entries so far, with two lines to a compound:
Value order: FPR binder | VCAM-1 augmentation | VCAM-1 down imaging | FPRL1 binder | VCAM-1 down
> COc1ccccc1CNC(=O)CCS(=O)(=O)c1ccc2c(c1)CCCN2C(C)=O
 : -3 | . | . | -3 | .
> CC(c1ccco1)N(Cc1ccco1)C(=O)Nc1ccccc1 (stereo unspecified)
 : 2 | i | i | 1 | i
> Cc1nc2ccc(S(=O)(=O)NC(CC(C)C)C(=O)O)cc2s1 (stereo unspecified)
 : 5 | . | . | 4 | .
> COc1cccc(NC(=O)N2CCN(c3cccc(C)c3)C(C)C2)c1 (stereo unspecified)
 : 2 | . | . | 2 | .

The listing continues.
SMILES | FPR binder | VCAM-1 augmentation | VCAM-1 down imaging | FPRL1 binder | VCAM-1 down
COc1ccc(NC(=O)[C@H](CCS(C)(=O)=O)N2Cc3ccccc3C2=O)c(OC)c1 | 7 | . | . | 6 | .
COC(=O)c1c(C(=O)OC)n(CCCN)c2ccc(C)cc12 | -5 | i | i | -2 | i
CC1Cc2cc(/C(O)=C3\C(=O)C(=O)N(CCN4CCOCC4)C3c3ccccc3F)ccc2O1 (stereo unspecified) | 19 | . | . | 31* | .
CCN(C(=O)COc1cc(=O)n(CC)c2ccccc12)c1cc(Cl)ccc1OC | 8 | . | . | 1 | .
COC(=O)C1(C)Nc2ccccc2C(=O)N1c1ccccc1OC (stereo unspecified) | -3 | . | . | -4 | .
Cc1ccc2nsnc2c1S(=O)(=O)N1CCN(Cc2ccc3c(c2)OCO3)CC1 | 11 | i | i | -5 | i
c1ccc(CNc2c3c(nc4ncnn24)CCCC3)nc1 | 8 | i | i | 6 | i
O=C1NC(=O)C(CC(=O)N(c2ccccc2)C2(C(=O)NC3CCCC3)CCCCC2)N1 (stereo unspecified) | 0 | i | i | -1 | i
COc1ccc(CCNC(=O)c2nnn(CC(=O)Nc3ccccc3C)c2N)cc1OC | -3 | . | . | -2 | .
CC(C)(C)C(=O)Oc1cc(N)n(S(=O)(=O)c2ccccc2)n1 | -3 | i | i | 1 | i
CC1(c2ccc(Cl)cc2)NC(=O)N(CC(=O)NC(=O)NCc2ccco2)C1=O (stereo unspecified) | 1 | i | i | 1 | i
CCOC(=O)N1CCC(NC(=O)CSc2cc(=O)n(C)c3ccccc23)CC1 | 6 | . | . | -4 | .
O=S(=O)(c1ccccc1)n1nc(-c2ccccc2)nc1NCc1ccco1 | -3 | . | . | 7 | .
Cc1ccc(NC(=O)CSc2nnc(-c3ccc(S(=O)(=O)N4CCOCC4)cc3)n2C)cc1 | -2 | i | i | 1 | i
COCCNC(=O)CS(=O)Cc1nc(-c2ccccc2C)oc1C (stereo unspecified) | -12 | . | . | 1 | .
O=C(OCCNC(=O)c1cc2ccccc2oc1=O)c1cccnc1 | 4 | . | . | 1 | .
COc1ccc(-c2noc(CCN3C(=O)c4ccccc4C3=O)n2)cc1OC | -2 | i | i | -3 | i
CCc1ccccc1N1CC23C=CC(O2)C(C(=O)OC)C3C1=O (stereo unspecified) | -2 | . | . | 0 | .
O=C(NCc1cccs1)c1cc2c(s1)CS(=O)(=O)C2 | 0 | i | i | -1 | i
O=C(CN1C(=O)CSc2ncccc21)NCCN1CCOCC1 | -2 | . | . | 0 | .
CCOc1ccc(-n2c(=O)c3c(C)c(C)sc3n(CC(=O)NCc3ccco3)c2=O)cc1 | -5 | . | . | 7 | .
O=C(Nc1ccc(N2CCOCC2)cc1)C1CC1 | 10 | i | i | 0 | i
O=C1C2CCCN2C(c2ccc(Br)cc2)N1c1ccc(F)cc1 (stereo unspecified) | -4 | . | . | 0 | .
Cn1cnnc1Sc1nc2c(c(=O)n(C)c(=O)n2C)n1C | -6 | i | i | 4 | i

Sorted by length of the SMILES (lowest first): 6 of the compounds above.
SMILES | FPR binder | VCAM-1 augmentation | VCAM-1 down imaging | FPRL1 binder | VCAM-1 down
O=C(NCc1cccs1)c1cc2c(s1)CS(=O)(=O)C2 | 0 | i | i | -1 | i
COCCNC(=O)CS(=O)Cc1nc(-c2ccccc2C)oc1C (stereo unspecified) | -12 | . | . | 1 | .
O=S(=O)(c1ccccc1)n1nc(-c2ccccc2)nc1NCc1ccco1 | -3 | . | . | 7 | .
COc1ccc(-c2noc(CCN3C(=O)c4ccccc4C3=O)n2)cc1OC | -2 | i | i | -3 | i
CCOc1ccc(-n2c(=O)c3c(C)c(C)sc3n(CC(=O)NCc3ccco3)c2=O)cc1 | -5 | . | . | 7 | .
Cc1ccc(NC(=O)CSc2nnc(-c3ccc(S(=O)(=O)N4CCOCC4)cc3)n2C)cc1 | -2 | i | i | 1 | i

Continued:
SMILES | FPR binder | VCAM-1 augmentation | VCAM-1 down imaging | FPRL1 binder | VCAM-1 down
Cc1n[nH]c(C)c1S(=O)(=O)N1CCc2ccccc21 | 2 | . | . | -7 | .
CC(CCc1ccccc1)NC(=O)C1CCN(c2nnc(-n3cccc3)s2)CC1 (stereo unspecified) | 1 | . | . | 2 | .
CCOC(=O)CSc1nn(C)c(=S)s1 | -1 | i | i | 0 | i
CCOC(=O)N1CCN(C(=O)C2CCN(S(=O)(=O)c3ccc(Br)s3)CC2)CC1 | -2 | . | . | 10 | .
O=C(CSc1nnc(-c2cccs2)o1)N1CCCCC1 | -4 | . | . | -5 | .
COc1cccc(C2=NOC(C(=O)Nc3ccc(OC)c(OC)c3)C2)c1 (stereo unspecified) | 4 | . | . | 1 | .
N#C/C(=C\c1ccc(O)c(O)c1)C(=O)NCCCc1ccccc1 | 5 | i | i | 0 | i
CCOC(=O)CCn1nnc(N)n1 | 0 | . | . | 7 | .
COc1ccc(OC)c(C2C(C(=O)c3cc4ccccc4o3)=C(O)C(=O)N2c2cc(C)on2)c1 (stereo unspecified) | 33* | . | . | -2 | .
Cc1cc(C(=O)NCCCc2ccccc2)no1 | 0 | i | i | -4 | i
COCCCn1c(=S)[nH]c2ccc(N3CCOCC3)cc2c1=O | -1 | . | . | 3 | .
COc1cc(C(=O)NCc2cn3ccsc3n2)cc(OC)c1OC | 2 | . | . | -4 | .
CCCCN(C)C(=O)C(Cc1ccccc1)NS(=O)(=O)c1ccc2c(c1)CCC(=O)N2 (stereo unspecified) | 2 | . | . | 5 | .
CCOC(=O)CSc1nnc([C@H](CC(C)C)NC(=O)OC(C)(C)C)o1 | -11 | i | i | 0 | i
C=CCc1c(C)nc2c(C(=O)O)cnn2c1C | 0 | . | . | 2 | .
CCC(=O)NC(C)c1nc2ccccc2n1C (stereo unspecified) | -3 | . | . | -5 | .
Cc1sc2ncn(CC(=O)NCc3ccccn3)c(=O)c2c1S(=O)(=O)N1CCOCC1 | 0 | . | . | -6 | .
CC1CCCCC1NC(=O)COc1ccc(-n2cnnn2)cc1 (stereo unspecified) | 0 | i | i | 3 | i
CCOCCCn1c(=S)[nH]c2cc(C(=O)N3CCOCC3)ccc2c1=O | -8 | . | . | -1 | .
O=C(NCc1cccs1)C1CC(=O)N(C2CCCC2)C1 (stereo unspecified) | -1 | i | i | 0 | i
Cc1cccc(NC(=O)NCC(c2cccnc2)N2CCOCC2)c1 (stereo unspecified) | 4 | . | . | -1 | .
CCN1CCCC1CNC(=O)CN1C(=O)COc2ccc(C)cc21 (stereo unspecified) | -1 | . | . | 4 | .
CCOC(=O)c1cn(CC(=O)Nc2ccc(C)cc2)nn1 | -5 | . | . | 7 | .
CC(=O)N1C(C(=O)O)CSC1c1cccc(C)c1 (stereo unspecified) | -1 | . | . | 4 | .
Cc1ccc(-c2nc(CS(=O)(=O)CC(=O)NCCCN3CCN(C)CC3)c(C)o2)cc1 | -10 | . | . | 0 | .
COc1cc(OC)cc(C(=O)NCc2n[nH]c(=S)n2-c2ccccc2OC)c1 | 4 | i | i | -1 | i
CCOC(=O)c1oc2ccccc2c1CSc1nnnn1-c1ccc(OC)cc1 | 19 | i | i | 10 | i
Cc1sc2nc(SCc3nc4ccccc4[nH]3)n(Cc3ccco3)c(=O)c2c1C | -4 | i | i | -5 | i
COc1ccc(NS(=O)(=O)c2coc(C(N)=O)c2)cc1Cl | -12 | i | i | -7 | i
O=C(CSc1nc(O)cc(=O)[nH]1)Nc1ccc2c(c1)CCC2 | 2 | . | . | 0 | .
Cc1cc(C(=O)NCCN2CCCCC2C)n(-c2ccccc2)n1 (stereo unspecified) | -1 | i | i | 1 | i
O=C(Cn1cnc2c(nnn2Cc2ccc(F)cc2)c1=O)OCc1ccccc1 | 2 | . | . | 2 | .
CCOC(=O)c1ccc(Oc2c(C)oc3c(CN4CCN(C)CC4)c(O)ccc3c2=O)cc1 | -3 | . | . | -1 | .
Cc1cccc(-n2nnc(C(=O)NC3CCCc4ccccc43)c2N)c1 (stereo unspecified) | -6 | . | . | 0 | .
O=C(CCCCCn1c(SCc2ccncc2)nc2ccccc2c1=O)NCc1ccco1 | -1 | i | i | -2 | i
CCOC(=O)c1cc2c(=O)n3ccccc3nc2n(Cc2ccco2)c1=NC(=O)c1cccnc1 | -6 | . | . | 0 | .
CCOC(=O)c1c(CN2CCN(c3ccccc3)CC2)oc2ccc(O)cc12 | -1 | . | . | -1 | .
Cc1nc2ccc(NC(=O)N3CCC(c4ccccc4)C3)cc2nc1C (stereo unspecified) | 4 | i | i | -2 | i
COc1cccc(OC)c1C(=O)N1CCN(S(=O)(=O)c2ccccc2)CC1 | -9 | i | i | 2 | i

These rows are one share of the data; count on the stated rates, not on these rows.
